Assay outcomes (PubChem BioAssay)
RE007 growth inh – qHTS Assay for Inhibitors of the HIV-1 protein Vpr | hit rate 0.21% among 360,000 | S. pombe RE007 Vpr strain, BacTiter-Glo ATP luminescence, 24 h; control for the full effect not named in the record | AID 651644, 2012 | Potency, µM (highest dose often 92.2 µM), without a hit: at the top dose activity change, negative = less growth; active = well fitted falling curve with a large enough effect; inconclusive = small, poorly fitted or top-dose-only effect; inactive = no such curve, though single readings can be large or run the other way;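 further: nearly all actives have a fitted effect of over 50% in size; the assay follows cell death caused by Vpr and the record does not say whether a fall means rescue or toxicity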
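Fission yeast RE007 carrying one integrated HIV-1 vpr copy, seeded at OD 0.01 in PMG+AL medium with 23 nL pinned compound. Grown 24 h at 30 degrees; viability read by BacTiter-Glo luminescence after 5 min.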
StopGo reporter – High Throughput Screening for Foot and Mouth Disease Virus Antivirals; human cells with a luciferase reporter of 2A StopGo recoding; control for the full effect not named in the record; Potency, µM (titrated, usually from 57.9 µM), for the others: top-dose signal change, negative = less light; hit rate 1.2% among 410,000; active = well fitted falling curve with a large enough effect; inconclusive = small, poorly fitted or top-dose-only effect; inactive = no such curve, though single readings can be large or run the other way; tested in HEK293T cells; further: nearly all actives have a fitted effect of over 45% in size; luciferase light after 4 h
Active calls of the source: *; ? = inconclusive; & = joins results of further samples; [ ] = remark or other dose. On the % scale 0 is the no-effect control and ±100 the full control effect; potency means the concentration at half of the fitted maximal effect. Some of the compounds tested (hit frequency here may not be typical).

SMILES	RE007 growth inh	StopGo reporter
CN1OC[C@@H]2C(=O)N3CCc4c([nH]c5ccccc45)[C@@H]3C[C@@H]21	4.4%	0.0%
CCCCCCN1CCN(C2CN(Cc3cn(Cc4cc(C)cc(C)c4)nn3)S(=O)(=O)C2)CC1 (stereo not drawn)	?	-29.3%
O=C(Nc1nnc([C@@H]2C[C@H](O)[C@@H](CO)O2)s1)Nc1cccc2c1CCCC2	35.7%	-6.9%
C#CCN(C[C@H]1[C@H](OC(=O)NCCCCCC)[C@H](OC(=O)NCCCCCC)C[C@H]2C(=O)N(c3ccccc3)C(=O)[C@@H]12)S(=O)(=O)c1ccc(C)cc1	-4.0%	-21.8%
O=C(CNC(=O)c1ccccc1Br)Nc1cccc(S(=O)(=O)Nc2ccccc2Cl)c1	13.0%	6.4%
COC(=O)C1=C(C)N(CCCC(=O)O)C(=O)NC1c1ccccc1Cl (stereo not drawn)	2.8%	?
CC(=O)NC(c1ccc(F)c(F)c1)c1nc(-c2cc3ccccc3o2)cs1 (stereo not drawn)	6.8%[18.4 µM]	2.5%
O=C(c1ccc(Br)c(S(=O)(=O)N2CCOCC2)c1)N1CCN(C/C=C/c2ccccc2)CC1	3.6%	?
COc1ccc(NC(=O)CN2C(=O)C3CC=CCC3C2=O)cc1Cl (stereo not drawn)	1.1%	32.5%[activator]
CCOC(=O)c1c(C)nsc1NCc1ccccc1	1.1%	-14.2%
CCNC(=O)C1CCCN(C(=O)c2ccc3snnc3c2)CC1 (stereo not drawn)	5.0%	-7.3%
CCCCc1ccc(S(=O)(=O)NC(=O)C2(C)CCN2C(=O)CC2CC2)cc1 (stereo not drawn)	5.9%	-13.2%
COC(=O)[C@]12CCCCC=C1N(CCc1ccc(OC)c(OC)c1)C(=O)[C@H](CC(=O)NCCc1ccccc1OC)C2	-5.5%	-9.8%
Cc1cccc(C)c1-n1nnnc1C(c1ccnc2ccccc12)N1CCCN(C(=O)OC(C)(C)C)CC1 (stereo not drawn)	-9.4%	-28.5%
Cc1cccc(N2CCN(C(C(=O)NCc3ccccc3)c3ccc(C(F)(F)F)cc3)CC2)c1C (stereo not drawn)	8.3%	-16.8%
CCCNC(=O)c1cc(C2CCCCN2C(=O)c2ccc(C#N)cc2)on1 (stereo not drawn)	-9.6%[18.4 µM]	5.6%
Cc1[nH]c2ccccc2c1/C=N\NC(=O)c1ccccc1Cl	1.7%	-12.0%
CCn1nccc1NC(=O)c1csc([C@@H]2C[C@H](O)[C@@H](CO)O2)n1	-3.8%[18.4 µM]	-6.6%
COC(=O)Cc1ccc(OC2(C)CCN(Cc3ccc4c(c3)OCCO4)C2)cc1 (stereo not drawn)	-19.7%	-8.5%
Cc1nc2ccc(NC(=O)C3(C)CCCN(C(C)C)C3)cc2o1 (stereo not drawn)	14.3%	-15.7%
COc1ccccc1CNC(=O)c1cc(-c2ccc(F)cc2C)n[nH]1	-0.6%[18.4 µM]	13.4%
CCc1nc2ccc(C(=O)NCCCN3CCCC3=O)cn2c1N(C)Cc1ccc(OC)cc1	-15.8%[18.4 µM]	-14.9%
CCN1C[C@@H]2[C@@H]3C(=O)N(C)C(=O)[C@@H]3[C@](C)(C1=O)N2C(=O)c1ccc(C(F)(F)F)cc1	12.6%	-7.4%
CC1(C(=O)NS(=O)(=O)c2ccc3c(c2)CCO3)CCN1C(=O)COc1ccc(Cl)cc1 (stereo not drawn)	10.8%	-7.7%
CC(=O)c1cccc(-c2ccnc3c2CC(C(=O)Nc2cccc(NS(C)(=O)=O)c2)O3)c1 (stereo not drawn)	4.5%	-17.0%
Other records follow.
SMILES	RE007 growth inh	StopGo reporter
O=C(/C=C/c1ccccc1)Nc1cccc(C(=O)NCCCCc2ccccc2)c1	-15.8%	-13.9%
CC1(c2nnc(-c3ccc(F)cc3)o2)CC(c2cccnc2)=NO1 (stereo not drawn)	8.3%	-6.1%
Cc1c(C(=O)NCc2ccc(C(F)(F)F)cc2)sc(=O)n1Cc1cccc(F)c1	0.7%[18.4 µM]	-10.3%
COC(=O)C1=CO[C@H](C)[C@H]2CN3CC[C@@]4(C(=O)Nc5ccccc54)[C@@H]3C[C@H]12	6.0%	-13.3%
CN1CCC23c4ccccc4NC1C21CCN(C)C3Nc2ccccc21	-12.3%	-16.4%
CCCNC(=O)C1(C)CCN(Cc2ccc(OC)c3ccccc23)C1 (stereo not drawn)	-7.0%	-23.4%
O=C1NC(Cc2ccc(O)cc2)c2nc3ccc(F)cc3c(=O)n2-c2ncccc21 (stereo not drawn)	-27.2%	-34.6%
O=C(NCc1ccccc1)OC1CC2CC1[C@H]1CCCCN1C2=O (stereo partly drawn)	4.5%	-10.2%
Cc1ccc(S(=O)(=O)N2[C@H](CC(=O)c3ccccc3)OC[C@@H]2C(C)C)cc1	4.2%	-1.3%
CCCNC(=O)C1(C)CCN(Cc2ccc(C(=O)OCC)cc2)C1 (stereo not drawn)	-8.2%	-24.6%
CC(O)(c1cccc(F)c1)c1nc(-c2ccccc2)cs1 (stereo not drawn)	-28.9%	0.0%
COC(=O)[C@@]12C[C@@H](CC(=O)NCC3CCCCC3)C(=O)N(CCc3ccc(OC)c(OC)c3)C1=CCC(C)(C)C2	-0.2%	-9.7%
CC(NNC(=S)N1CCCCCC1)c1ccc2ccccc2n1 (stereo not drawn)	0.4%	56.9%[activator]
CN(C)CCNC(=O)c1cccc(-c2cnc3c(NC=O)cc(-c4ccc(C(=O)N5CCOCC5)cc4)cn23)c1	6.2%[18.4 µM]	-14.1%
COc1ccc2nc3n(c(=O)c2c1)-c1ncccc1C(=O)NC3C (stereo not drawn)	7.7%	-24.8%
COc1ccc(C(=O)COC(=O)C2COc3ccccc3O2)c(OC)c1 (stereo not drawn)	-6.1%	-21.7%
COCCNC(=O)c1onc(CSc2ccccn2)c1C(=O)NCCOC	6.6%	-0.3%
O=C(O)C1CCCCN1c1ccccc1[N+](=O)[O-] (stereo not drawn)	13.0%[18.4 µM]	-7.2%
CC(C)C[C@@H](CNCC(=O)[C@H](CC(=O)O)NC(=O)c1[nH]cnc1C(=O)N[C@H](CN)CC(C)C)NC(=O)c1nc[nH]c1C(=O)N[C@@H](Cc1ccccc1)C(=O)O	1.8%	-28.0%
Cc1ccn2c(-c3csc(Nc4ccc(C(=O)O)cc4)n3)c(C)nc2c1	0.7%	-11.5%
COc1ccc(C(=O)N2CCc3ccccc3C2)cc1S(=O)(=O)N1CCCC1	-16.5%	-0.5%
COc1ccc(-n2nnnc2C(c2cccc(OC)c2OC)N2CCC(n3c(=O)[nH]c4ccccc43)CC2)cc1 (stereo not drawn)	3.0%	?
CCCCN1C(=O)C(CC(=O)NCc2cccs2)CC(C(=O)N(C)C)=C1C (stereo not drawn)	-2.6%	-8.1%
CSCCC(NC(=O)c1ccc(Cl)cc1Cl)C(=O)NCC(c1cccs1)N(C)C (stereo not drawn)	1.4%	-3.4%
CCCCCNC(=O)C(c1cc2ccccc2o1)n1c(=O)c(-c2ccccc2)nc2ccccc21 (stereo not drawn)	0.0%	0.0%

Single records, from the list above.
CN(C)CCNC(=O)c1cccc(-c2cnc3c(NC=O)cc(-c4ccc(C(=O)N5CCOCC5)cc4)cn23)c1 across the screens: RE007 growth inh = 6.2%[18.4 µM]; StopGo reporter = -14.1%
CCCCCNC(=O)C(c1cc2ccccc2o1)n1c(=O)c(-c2ccccc2)nc2ccccc21 (stereo not drawn) across the screens: RE007 growth inh = 0.0%; StopGo reporter = 0.0%

More results.
SMILES	RE007 growth inh	StopGo reporter
CC1(C(=O)NS(=O)(=O)c2ccc3c(c2)CCO3)CCN1C(=O)CCC1CCCC1 (stereo not drawn)	-10.4%	-8.2%
Cc1cc(C)c2cc(C#N)c(NCCNC(=O)c3ccncc3)nc2c1	0.6%	-15.8%
COC(=O)C[C@@H]1C=C[C@H](NC(=O)Nc2ccc(OC)cc2)[C@@H](CO)O1	4.7%	-14.4%
C=C(C)CNC(=O)c1ccc(OC2CCN(C(=O)COC)CC2)cc1	6.9%	1.2%
CC(C)(C)CN1C(=O)C(=O)NC[C@@H]1CC1CCCCC1	11.6%	-14.0%
O=C(C[C@H]1C(=O)N(Cc2cccnc2)C[C@@H]1Cc1ccccc1)Nc1ccc(Br)cc1	-30.8%	-19.0%
Cc1csc(N2CCCC2c2nc3cc(Cl)c(N4CCCCC4)cc3n2CCOCCO)n1 (stereo not drawn)	3.2%	-11.9%
S=C1NCc2cncnc2N1	-8.9%[18.4 µM]	-18.5%
CCCCCCNC(=O)O[C@H]1Cn2c(=O)ccc(=O)n2[C@@H]2CN(S(=O)(=O)c3ccc(C)cc3)C[C@]12O	-3.0%	17.8µM*
COc1ccccc1CN1CCN(C(=O)c2cccc3ccccc23)CC1	7.9%	-12.0%
O=[N+]([O-])c1ccc(N2CCN(Cc3ccccc3)CC2)c2c1no[n+]2[O-]	?	28.2µM*
CCNC(=O)C1CCCN(C(=O)c2ccccc2OC(F)(F)F)CC1 (stereo not drawn)	-13.1%	-21.2%
COC(=O)c1ccc2nc(-c3ccc(Cl)cc3)c(CC3CCCCC3)n2c1	5.0%	?
COc1ccc(C(C)(O)c2nc(-c3cccc(C(=O)O)c3)cs2)cc1 (stereo not drawn)	3.3%	46.5%[activator]
CC(O)(c1ccc(F)c(F)c1)c1nc(-c2ccc3ccccc3c2)cs1 (stereo not drawn)	-7.9%[18.4 µM]	-17.0%
O=C1NC(=O)C2C3OC(C(Br)C3Br)C12 (stereo not drawn)	-8.9%	0.6%
COc1ccc([C@H]2N[C@]3(CCCN(Cc4ccc(Cl)cc4)C3=O)[C@H]3C(=O)N(Cc4ccccc4)C(=O)[C@@H]23)cc1	11.4%	?
O=C(NC1CCCCC1)N1Cc2cc(N3CCOCC3)ccc2-n2nncc2C1	11.0%	7.4%
CC(=O)Nc1ccc(CN(C)c2c(C)nc3ccc(C(=O)N4CCN(c5ccccc5)CC4)cn23)cc1	-19.2%[18.4 µM]	-17.2%
COC(=O)C1=C(C(=O)OC)[C@@H]2Nc3ccccc3[C@@]23C[C@@H](C(=O)OC)N(C(=O)CC(C)C)C3=N1	5.0%	-17.4%
O=[N+]([O-])O[C@H]1CO[C@H]2[C@@H]1OC[C@H]2O[N+](=O)[O-]	10.7%[18.4 µM]	-9.8%&-2.1%
O=C(Nc1ccc(F)cc1)N1Cc2ccccc2-n2nncc2C1	16.2%	4.8%
C=CC(=O)Nc1ccc(Nc2ccnc(Nc3ccc(N4CCN(C)CC4)cc3)n2)cc1	-6.8%	-25.1%
CN1CCN(C(=O)c2cc3c(c(-c4cccc(-c5cc6ccccc6o5)c4)n2)[C@@H](CCO)N(S(=O)C(C)(C)C)C3)CC1 (stereo partly drawn)	-19.8%	-10.1%
Cc1ccc(CN2CCN(C(=O)/C=C/[C@H]3O[C@@H](n4cc(C)c(=O)[nH]c4=O)C[C@@H]3O)CC2)cc1	0.0%	0.0%
(next part)
SMILES	RE007 growth inh	StopGo reporter
Cc1cccc(N(CC(=O)N2CCCC2)S(C)(=O)=O)c1C	-0.7%	0.0%
Cc1ccc([C@H]2N[C@]3(CCCN(Cc4ccc(C(F)(F)F)cc4)C3=O)[C@H]3C(=O)N(C)C(=O)[C@@H]23)cc1	-4.2%	-23.3%
COCCNc1nc(Nc2ccc(Cl)cc2F)c2sccc2n1	?	?
O=C1NN(c2ccccc2)C(=O)C1=Cc1ccccc1	-10.9%	10.8%
COc1ccc(S(=O)(=O)NC(=O)C2(C)CCN2C(=O)c2cccc(F)c2)cc1 (stereo not drawn)	2.8%	-6.8%
COc1cc2sc3ccc(-c4ccc(N(C)C)nc4)cc3c(=O)c2cc1OC	-10.6%	19.5%
Cc1ccccc1Nc1nc(N)nc(COC(=O)c2nn(C)c(=O)c3ccccc23)n1	-10.4%	?
Cc1cccc(S(=O)(=O)N(C)C[C@H]2OCc3cnnn3CCCC(=O)N([C@@H](C)CO)C[C@H]2C)c1	16.6%	-17.2%
CC(C)(C)OC(=O)N(CCc1ccccc1)Cc1ccc(OCc2cccc(NC(=O)/C=C/c3ccccc3)c2)cc1	-4.0%	22.6%
COc1cc(/C=N/NC(=O)c2nnn(-c3nonc3N)c2C)ccc1OCc1ccc(Cl)cc1	6.3%	28.4%
CN[C@H](C)C(=O)NC[C@H]1O[C@@H](n2ccc(N)nc2=O)[C@H](O)[C@@H]1O	-16.6%	-10.5%
C=C1C(=O)[C@]23C[C@H]1CCC2[C@]1(C)C(=O)CC[C@@](C)(C(=O)O)C1C[C@@H]3O (stereo partly drawn)	-13.7%	35.5µM*
Cc1cc(C(=O)N2CCC2(C)C(=O)Nc2cccc3ccccc23)nn1C (stereo not drawn)	5.5%[18.4 µM]	-18.8%
COc1ccc([C@H]2N[C@]3(CCCN(Cc4ccccc4)C3=O)[C@H]3C(=O)N(C)C(=O)[C@@H]23)cc1	-9.7%	-25.7%
COC(=O)c1ccc(C(NC(=O)OCc2ccccc2)/C(F)=C/[C@@H](C)C(=O)O)cc1 (stereo partly drawn)	1.5%	-9.5%
O=C(c1cccs1)N1C[C@@H](O)[C@H](n2cc(-c3ccc(F)cc3)nn2)C[C@@H]1c1ccc(Cl)cc1	-4.8%	-6.8%
COc1ccc(S(=O)(=O)N2CCCCC2c2cc(C(=O)NC(C)C)no2)cc1 (stereo not drawn)	8.2%	-8.1%
